D2 PAM = positive allosteric modulators of human D2 dopamine receptor | actives 0.23% (n = 360,000) | P14416 | potentiation, % (no concentration beside the values) | DiscoveRx D2 beta-arrestin cells, luminescence, 90 min; 100% = 57 uM dopamine signal; active = potentiation of 50% or more; inconclusive = 30% to 50%; inactive = 30% or less;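 note: compound concentration not given in the record; tested on top of an EC20 dose of dopamine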
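PathHunter beta-arrestin assay in DiscoveRx D2 cells. Compounds were added with an EC20 of dopamine (50 nM final) for 90 min at 37 deg C. Luminescence was read 1 h after detection reagent, with 57 uM dopamine as the EC100 control.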
TRPML1 agonist = human mucolipin-1 channel agonism | TRPML1-expressing cells, Ca2+ dye fluorescence, FDSS; host cell line not named in the record; reference of the full effect not given here | activation, % (no concentration beside the values) | AID 624414 | Q9GZU1 | actives 0.12% (n = 410,000); in the data active = activation above about 50%; inconclusive = about 30% to 50%; inactive = below about 30%; note: 0% is about no effect; the text of the record puts the active cut at 80%
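Kinetic FDSS Ca2+ read in Tet-induced TRPML1-DL cells (ABD Ca8 dye plus quencher, 45-90 min RT loading): baseline, then compound, then 110 s agonist window; EC80 agonist 54-4 at 4uM final added afterwards for a 110 s antagonist window.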
CtBP-E1A inh = inhibitors of CtBP/E1A interaction | AlphaScreen GST-E1A/His-CtBP binding, 1536-well; active compounds read low; control for the full effect not named in the record | activity change, % (no concentration beside the values) | actives 0.49% (n = 340,000) | AID 651724; in the data active means activity change below about -65%; inconclusive means about -30% to -65%; inactive means above about -30%; note: % is set by controls: 0 for no effect and ±100 for the full control effect
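GST-E1A and His-tagged CtBP (125 nM each as 5X stock) were preincubated with pin-transferred compound for 2 h at 37 °C in the dark, then glutathione donor and nickel acceptor beads were added for 1 h before AlphaScreen reading.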
D2 ag = human D2 receptor agonism in beta-arrestin assay; AID 624465; actives 0.084% (n = 360,000); DiscoveRx PathHunter D2 beta-arrestin, luminescence, 90 min; 100% = 57 uM dopamine signal; P14416; activation, % (no concentration beside the values); in the data active = activation above about 40%; inconclusive = about 15% to 40%; inactive = below about 15%; note: compound concentration not given in the record; the text of the record calls up to 30% inactive
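DiscoveRx PathHunter D2 beta-arrestin cells (2,100/well) attached overnight, then compound-stimulated 90 min at 37 C in HBSS/10 mM HEPES/0.1% Tween-20 buffer; beta-galactosidase complementation read by luminescence after 1 h at ambient temperature. Dopamine 57 uM final (EC100) as control.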
PINK1 expr mod = changes PINK1 expression. PINK1 immunofluorescence, high-content cytometry, 24 h. Potency, µM (highest dose often 76.6 µM), for the others: top-dose activation (PINK1 increase), hits mostly activators. actives 0.2% (n = 410,000); active = well fitted activation curve with a large enough effect; inconclusive = small, poorly fitted or top-dose-only effect; inactive = flat fitted curve, though single readings scatter; cell line not stated here;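 note: potency is the fitted concentration of half-maximal effect; % of control where 0% means no effect; nearly all actives have a fitted effect of over 65% in size; a mitochondrial uncoupler was the plate control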
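Stable cell line treated 24 h with compounds at 5 concentrations (CCCP controls), then fixed and immunostained for PINK1 plus nuclear and cell stains; PINK1 immunofluorescence quantified by laser-scanning microplate cytometry.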
Six1-Eya2 blk = blocks human Six1 binding to Eya2. AID 651725. activity change, % (test concentration not listed). actives 0.56% (n = 360,000). Q15475+O00167. AlphaScreen GST-Six1/His-Eya2 binding, biochemical; active compounds read low; control for the full effect not named in the record; in the data active = activity change below about -65%; inconclusive = about -30% to -65%; inactive = above about -30%; note: % is set by controls: 0 for no effect and ±100 for the full control effect
Target sequence (O00167 whole entry, looked up): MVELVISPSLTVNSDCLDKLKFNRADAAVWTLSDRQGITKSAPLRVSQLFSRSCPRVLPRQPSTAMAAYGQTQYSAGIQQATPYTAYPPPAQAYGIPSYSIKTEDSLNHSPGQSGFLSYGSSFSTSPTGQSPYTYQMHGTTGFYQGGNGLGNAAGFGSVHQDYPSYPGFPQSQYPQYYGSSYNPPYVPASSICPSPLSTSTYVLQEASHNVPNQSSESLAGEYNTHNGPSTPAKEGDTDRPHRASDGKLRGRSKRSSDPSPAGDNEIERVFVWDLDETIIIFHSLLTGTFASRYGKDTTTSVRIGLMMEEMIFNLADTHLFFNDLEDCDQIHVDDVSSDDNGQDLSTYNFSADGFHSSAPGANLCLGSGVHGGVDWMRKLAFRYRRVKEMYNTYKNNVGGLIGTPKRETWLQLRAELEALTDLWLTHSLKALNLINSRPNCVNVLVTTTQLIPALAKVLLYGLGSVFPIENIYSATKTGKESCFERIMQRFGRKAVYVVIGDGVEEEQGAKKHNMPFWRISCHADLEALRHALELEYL
Target sequence (Q15475 whole entry, looked up): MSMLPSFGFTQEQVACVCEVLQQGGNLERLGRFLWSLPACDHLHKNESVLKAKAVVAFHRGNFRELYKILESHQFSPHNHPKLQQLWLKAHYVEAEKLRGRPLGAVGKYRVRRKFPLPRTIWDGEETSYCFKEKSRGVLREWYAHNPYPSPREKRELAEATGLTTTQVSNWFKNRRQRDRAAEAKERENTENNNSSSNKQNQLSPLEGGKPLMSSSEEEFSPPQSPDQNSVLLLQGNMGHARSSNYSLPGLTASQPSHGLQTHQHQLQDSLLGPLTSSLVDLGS
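AlphaScreen with GST-Six1 and His-Eya2 (5X mix: 250 nM and 500 nM), glutathione donor and nickel acceptor beads; buffer 50 mM Tris pH 8.0, 300 mM NaCl, 1 mM TCEP; 1 h at 37 C in the dark.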
Active calls of the source: *; ? = inconclusive; . = not tested or not shown; [ ] = another dose, or the depositor's remark.

SMILES | D2 PAM | TRPML1 agonist | CtBP-E1A inh | D2 ag | PINK1 expr mod | Six1-Eya2 blk
Cc1ccc(-c2nc(-c3cccnc3)sc2CC(=O)Nc2ccc3nc(C)sc3c2)cc1 | -10 | 0.1 | 12 | -1.3 | 3.8% | -5
N=c1c(C(=O)NCCc2ccccc2)cc2c(=O)n3ccccc3nc2n1CCCN1CCOCC1 | -3 | 0.9 | -4 | -1.3 | 3.3% | -1
NS(=O)(=O)c1ccc(CCNC2CC(=O)N(CCc3ccccc3)C2=O)cc1 (stereo not given) | -45 | -1.2 | 0 | -3.1 | -0.8% | 3
Cc1ccc(NC(=O)CCC(=O)OCC(=O)c2ccc(Oc3ccc([N+](=O)[O-])cc3)cc2)c(C)c1 | -6 | -0.3 | -7 | 0.5 | -0.9%[38.3 µM] | -2
COc1ccc(C(=O)CSc2nnc(-c3ccoc3C)n2CC2CCCO2)cc1 (stereo not given) | -12 | -1.0 | -5 | -1.4 | -0.1% | -2
COc1cc(NS(=O)(=O)c2ccc(N/C=C(\C#N)c3nc4ccccc4o3)cc2)nc(OC)n1 | 6 | 4.1 | -24 | -4.0 | -0.2% | -21
COc1ccc(-c2c(NC(=O)CC(C)C)n(C)c3ccccc3c2=O)cc1OC | -3 | -0.1 | . | -0.2 | 0.7% | 0
CCCn1nc(C(=O)Nc2cccc(S(=O)(=O)N3CCOCC3)c2)c2ccccc2c1=O | 4 | -0.9 | -5 | -0.3 | 2.6% | -9
COc1ccc(-c2cc(C(F)(F)F)nc(N3CCN(C)CC3)n2)cc1OC | -31 | -0.6 | -6 | -2.2 | -1.0% | -10
O=C(NCc1ccccc1)C(c1ccc(O)cc1)N(C(=O)c1cnccn1)c1ccccc1 (stereo not given) | 11 | 0.0 | 1 | 6.1 | 1.4% | 6
CNC(=O)c1sccc1SCc1ccc(Cl)cc1Cl | -7 | 1.9 | 4 | -4.0 | 2.3% | -1
CCOC(=O)N1CCN(C(=O)Cn2ncc3ccccc32)CC1 | -3 | -0.1 | -1 | 0.0 | -0.6% | 5
Cc1[nH]c(C(=O)O)c(C#N)c1C(=O)c1ccccc1 | -15 | 0.6 | -11 | 0.1 | 2.7% | 0
O=c1[nH]c2cnccc2n1-c1ccccc1 | -5 | -0.5 | -5 | -3.1 | 5.7% | 1
CC(=O)N1CCN(CC(=O)Nc2ccccc2Sc2ccccc2)CC1 | 0 | 0.6 | 7 | 2.2 | -1.1% | 5
Cc1ccc(-n2ncc3c(=O)n(CC(=O)N4CCN(c5ccccc5F)CC4)cnc32)cc1C | 13 | -0.7 | -1 | -1.5 | 1.3% | -9
Cc1ccc(S(C)(=O)=NC(=O)c2cc(C)on2)cc1 (stereo not given) | -6 | 0.1 | 4 | -6.6 | 1.6% | -14
Cn1c(SCC(=O)OC2CCCCC2)nnc1-c1ccc(S(=O)(=O)N2CCCC2)cc1 | 7 | -0.4 | 0 | -0.4 | 2.8%[38.3 µM] | -1
Cc1ccc(C(=O)O)cc1NS(=O)(=O)c1ccc2c(c1)oc(=O)n2C | -4 | 1.3 | 0 | -2.1 | 0.5% | -5
O=C(Nc1ccc(F)cc1)c1cc(-c2ccccc2)no1 | -3 | 0.5 | . | -4.1 | 0.4% | 0

Looked up above:
O=C(Nc1ccc(F)cc1)c1cc(-c2ccccc2)no1 @ TRPML1 agonist = 0.5
CNC(=O)c1sccc1SCc1ccc(Cl)cc1Cl @ D2 PAM = -7
COc1ccc(C(=O)CSc2nnc(-c3ccoc3C)n2CC2CCCO2)cc1 (stereo not given) @ TRPML1 agonist = -1.0
Cc1ccc(-c2nc(-c3cccnc3)sc2CC(=O)Nc2ccc3nc(C)sc3c2)cc1 @ PINK1 expr mod = 3.8%
Cn1c(SCC(=O)OC2CCCCC2)nnc1-c1ccc(S(=O)(=O)N2CCCC2)cc1 @ TRPML1 agonist = -0.4

Carrying on.
SMILES | D2 PAM | TRPML1 agonist | CtBP-E1A inh | D2 ag | PINK1 expr mod | Six1-Eya2 blk
CCOC(=O)NC1=NCC(C)S1 (stereo not given) | 2 | -0.2 | . | -1.0 | 3.0% | -6
CCOC(=O)[C@H]1[C@H]2COc3ccc(Cl)cc3[C@@H]2N2C(=O)c3cc(Cl)ccc3NC(=O)[C@@]12C | -6 | 0.0 | . | 2.1 | 3.0% | 0
Cc1ccc(C(=O)COC(=O)CN2C(=O)C3C4CC(C(Br)C4Br)C3C2=O)cc1 (stereo not given) | -10 | 0.0 | -3 | -3.8 | 1.7% | -1
Cc1nc2ccccc2n1CCOc1ccc([N+](=O)[O-])cc1 | -4 | -0.8 | 0 | 4.5 | 2.7% | 1
COc1cccc(NC(=O)c2c(C)nn(-c3ccccc3)c2Cl)c1 | -2 | -0.2 | 10 | -4.2 | 9.0% | -6
COc1ccc(CCNC(=O)C(=O)NCCC2CCCCN2S(=O)(=O)c2ccccc2)cc1 (stereo not given) | -23 | 1.8 | 2 | -6.4 | 8.8% | 24
O=C(NCCCn1ccnc1)C1CCCN(S(=O)(=O)c2ccc(F)cc2)C1 (stereo not given) | 6 | 1.2 | 5 | -6.2 | 0.1% | -2
CCOc1ccc(CC(=O)NCC(=O)NCc2cc(=O)n(C)c(=O)n2C)cc1 | 3 | -0.3 | -3 | -1.0 | 0.3% | -2
CCOC(=O)N1CCN(/C=C(\C#N)c2nc3ccccc3s2)CC1 | -5 | 3.7 | -10 | 0.7 | 4.0%[38.3 µM] | -5
C=C(C)CN(CC)C(=O)CCc1nnc(CCCc2ccccc2)o1 | -1 | -0.3 | . | -0.3 | 0.4% | 14
Cc1cc(OCC(=O)OCC(=O)N2CC(C)CC(C)C2)ccc1Cl (stereo not given) | 2 | -0.2 | 4 | -2.7 | 1.0% | 5
COc1cc(-c2c(C#N)c(N)nc3c2c(C)nn3-c2ccc(C)c(C)c2)cc(OC)c1OC | 10 | 2.7 | 16 | -0.2 | 3.1%[38.3 µM] | 6
Cc1ccc2c(c1)nc(NCCO)n2C | -3 | -0.6 | -2 | -0.2 | 1.9% | -2
OC1C=CSc2nc3ccccc3n21 (stereo not given) | -7 | 1.1 | -3 | -1.3 | 2.3% | -15
Cc1ccc[n+](C2C(c3ccc([N+](=O)[O-])cc3)C(C#N)=C([S-])NC2(O)C2CC2)c1 (stereo not given) | -10 | 0.1 | -14 | 1.5 | 0.1% | -7
COc1ccc(/C=N/Nc2cc(=O)n(C)c(=O)n2C)cc1OC | -12 | 0.4 | -28 | -3.3 | 0.8% | -17
Cc1cc(C(=O)Nn2cnc3ccccc3c2=O)ccc1[N+](=O)[O-] | -8 | 1.4 | -24 | -6.8 | 0.8% | -4
CC(C)NC(=O)CSc1nc2[nH]ncc2c(=O)[nH]1 | -3 | 0.0 | . | -1.7 | 0.3% | 1
Cc1ccc(C)c(OCCC(=O)OCC(=O)N2CCN(S(=O)(=O)c3ccc(Cl)cc3)CC2)c1 | -1 | 0.8 | 5 | 0.4 | 19% | 12
CCC(C(=O)NC1C(=O)N2C(C(=O)O)=C(CSc3nnc(C)s3)CSC12)c1ccccc1 (stereo not given) | -7 | -0.5 | . | -7.4 | -0.6% | -6
O=C(Nc1ccc(Cl)cc1)c1ccc2sc([C@@H]3O[C@H](CO)[C@@H](O)[C@H]3O)nc2c1 | 5 | -0.3 | -1 | 11 | 0.6% | -1
Cc1ccc(NC(=O)COC(=O)c2cccnc2)c(C)c1 | -4 | -0.2 | 4 | -2.5 | 0.0% | -1
NC(=O)C(CCc1nc2ccccc2[nH]1)NS(=O)(=O)c1ccccc1 (stereo not given) | -15 | 0.0 | 0 | 0.3 | 0.7% | 17
CCN(CC)C(=O)CSC(Nc1ccc(F)cc1)=C(C#N)C#N | -1 | 4.3 | 3 | -5.5 | -0.1% | 5
CC(C(=O)O)n1nnc2ccccc21 (stereo not given) | -3 | 0.0 | 2 | -18 | -2.0% | 0
Cc1ccccc1CNc1ccc(C(CC(N)=O)NC(=O)c2ccc(Br)cc2)cc1[N+](=O)[O-] (stereo not given) | -46 | -0.8 | -2 | -1.6 | 1.1% | -7
Cc1cc(Br)ccc1SCC(=O)OCC(=O)NC(C)c1ccccc1 (stereo not given) | -11 | 4.1 | 13 | -0.8 | -0.9% | 4
Cn1cnc2c1c(=O)n(Cc1ccc(Cl)cc1Cl)c(=O)n2C | -3 | 0.4 | -13 | -4.7 | 0.0% | -2
COC(=O)c1cnc(Nc2ccc(Cl)cc2)c([N+](=O)[O-])c1 | 9 | 5.6 | -18 | 4.8 | 5.1% | -13
O=C(Nc1ccc(Cl)cn1)C1C(c2ccccc2)C1(Cl)Cl (stereo not given) | -4 | -0.8 | 10 | -2.7 | ? | 4
Cc1ccc(N=Nc2c(=O)[nH]n3c(=O)cc(C)[nH]c23)cc1 | -20 | -1.0 | -4 | -7.5 | -1.4% | -14
C[C@@H]1CN([C@H](C)CO)C(=O)c2cc(-c3ccc(F)cc3)cnc2O[C@H]1CN(C)C(=O)c1ccc(F)cc1 | -2 | 0.4 | -7 | -9.2 | 2.3% | 0
Cc1csc(=O)n1CC(=O)Nc1nc2ccccc2s1 | -20 | -0.5 | 19 | -1.1 | -0.4% | 5
CCC1CCCCN1CCCNC(=O)c1nn(C)c2c1CS(=O)(=O)c1ccccc1-2 (stereo not given) | -14 | 0.2 | 0 | 1.7 | -0.9% | 1
COc1ccccc1N1CCCSC1=Nc1ccccc1 | -5 | -0.9 | 3 | -3.1 | 0.0% | -14
COc1cc(OC)cc(C(=O)N2CCN(Cc3ccccc3C(F)(F)F)CC2)c1 | -2 | 0.3 | -7 | -1.0 | 11%[38.3 µM] | -5
Cc1cc(C(F)F)nn1CC(=O)Nc1cc([N+](=O)[O-])ccc1F | 7 | 1.1 | 0 | -3.8 | -0.2% | 8
Cc1ccc(NC(=O)c2ccc(S(=O)(=O)N3CCCC3)cc2)nc1 | -2 | -0.5 | 1 | -3.5 | 2.0% | 1
CC(=O)c1ccc(N(C(=O)c2csnn2)C(C(=O)NC2CCCC2)c2ccccc2)cc1 (stereo not given) | -5 | 0.5 | -5 | -5.9 | -1.4% | 11

Taken from the entries so far for reference:
SMILES | D2 PAM | TRPML1 agonist | CtBP-E1A inh | D2 ag | PINK1 expr mod | Six1-Eya2 blk
O=C(Nc1ccc(Cl)cc1)c1ccc2sc([C@@H]3O[C@H](CO)[C@@H](O)[C@H]3O)nc2c1 | 5 | -0.3 | -1 | 11 | 0.6% | -1
Cc1ccc(NC(=O)COC(=O)c2cccnc2)c(C)c1 | -4 | -0.2 | 4 | -2.5 | 0.0% | -1

Seven of the entries above in order of their number in Six1-Eya2 blk, high to low.
mol	Six1-Eya2 blk
Cc1cc(Br)ccc1SCC(=O)OCC(=O)NC(C)c1ccccc1 (stereo not given)	4
CCC1CCCCN1CCCNC(=O)c1nn(C)c2c1CS(=O)(=O)c1ccccc1-2 (stereo not given)	1
CC(C(=O)O)n1nnc2ccccc21 (stereo not given)	0
O=C(Nc1ccc(Cl)cc1)c1ccc2sc([C@@H]3O[C@H](CO)[C@@H](O)[C@H]3O)nc2c1	-1
COc1cc(OC)cc(C(=O)N2CCN(Cc3ccccc3C(F)(F)F)CC2)c1	-5
Cc1ccccc1CNc1ccc(C(CC(N)=O)NC(=O)c2ccc(Br)cc2)cc1[N+](=O)[O-] (stereo not given)	-7
COc1ccccc1N1CCCSC1=Nc1ccccc1	-14
